Mtb hypoxia inh – reduces hypoxia-regulated biosensor signal in M. tuberculosis | 300,000 compounds, 0.1% hits | fluorescence inhibition, % (no concentration beside the values) | AID 1159583 | M. tuberculosis hypoxia-regulated fluorescent reporter, fluorescence;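 active means 35 to 45% if threefold the growth effect, above 45% if 1.5-fold the growth effect; inactive means the rest, general growth blockers included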;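 further: wells of about 50 µL received 100 nL stock; 0% = vehicle wells and 100% = reference inhibitor wells; whole bacteria with a GFP reporter of the hypoxia response; strong numbers were not always called active; many hits fall short of the cut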
Bead autofluor – flagged as autofluorescent in microsphere protease counterscreen | compound autofluorescence counterscreen, microsphere flow cytometry; hits give high values | fluorescence intensity (test concentration not listed) | AID 624483 | 360,000 compounds, 3.1% hits;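 active means at least 3 SD above the mean of all compounds, about 16000 in these data; inconclusive means too few beads counted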;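 further: 100 nL of 1 mM stock went into each well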
BJeLR viability – kills HRASV12-expressing BJeLR cells | BJeLR (HRASV12) viability, CellTiter-Glo ATP luminescence, 48 h; reference of the scale not given here | inhibition, % (concentration not given with the values) | 300,000 compounds, 0.17% hits;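 active means replicate mean above 50%; inconclusive means above 50% but judged a plate artefact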;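 further: 50 nL library stock added to about 25 µL; numbers are from one replicate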
Sa RN4220 lethal – kills Staphylococcus aureus RN4220; 330,000 compounds, 0.33% hits; inhibition, % (concentration not given with the values); S. aureus RN4220 growth, OD600, 16 h;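 active means z-score of -3 or lower and OD600 up to 0.18 on both plates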;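 further: plate controls were untreated cells for no effect and reference antibiotic for full effect; stock transfer was 100 nL into about 80 µL; one replicate is shown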
ugtP null kill – growth inhibition of S. aureus ugtP deletion strain. S. aureus RN4220 ugtP deletion, OD600 growth, 16 h; some inactives read as strong as hits. growth inhibition, % (test concentration not listed). 330,000 compounds, 0.54% hits;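 active means z-score under -3 and OD600 up to 0.15 on both plates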;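 further: plate controls were untreated wells for no effect and antibiotic for full effect; wells of about 80 µL received 100 nL stock; the first replicate is given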
PrP UTR inh – inhibition of PrP 5' UTR reporter expression | 340,000 compounds, 0.35% hits | cell-based PrP 5' UTR mRNA reporter, plate reader | AID 488862 | inhibition, % (no concentration beside the values);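 active means every replicate at 50% or more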;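 further: 0 = median of the neutral control wells; tested in H4 reporter cells; numbers are from one replicate; inactives centre near -14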
Mtb hypoxia inh growth – second read-out of Mtb hypoxia inh, no call of its own (marks repeat the call); growth inhibition, %; measured here: M. tuberculosis growth (absorbance);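 0% = vehicle and 100% = reference antibiotic; read after six days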
Numbers without * were called inactive; ? = inconclusive; nt = not tested or not shown. Rows are unselected. Share with any hit: about 4%.

SMILES	Mtb hypoxia inh	Mtb hypoxia inh growth	Bead autofluor	BJeLR viability	Sa RN4220 lethal	ugtP null kill	PrP UTR inh
COc1ccc(CC(=O)NCc2ccc3c(c2)OCO3)cc1	nt	nt	2733	-1.5	0.6	-0.6	-31.8
O=C1Nc2ccc(S(=O)(=O)N3CCOCC3)c3cccc1c23	0.4	2.3	9729	-2.0	2.6	0.3	-72.8
COc1ccc(/C=C/C(=O)OC(C)C(=O)c2ccccc2)cc1OC (centres undefined)	3.6	1.0	nt	-4.4	3.8	6.6	6.5
C/C(CC(=O)N1CCN(C=O)CC1)=N\NC(=O)c1cc2ccccc2cc1O	nt	nt	2091	-0.8	nt	nt	6.1
Cc1cc(C)n(CC(=O)N2CCc3ccccc32)c(=O)c1C#N	-7.8	1.6	3681	1.8	1.2	4.0	-2.2
CCc1ccc(NC(=S)N(Cc2cccc(Br)c2)CC2CCC(C(=O)O)CC2)cc1 (centres undefined)	7.0	3.7	4540	3.1	6.7	18.8	-1.2
CCN(Cc1ccncc1)C(=O)c1ccccc1NS(=O)(=O)c1ccc(F)cc1	6.8	3.1	3858	8.8	6.0	9.4	4.2
Cc1ccc(/C=C2\NC(=S)NC2=O)cc1[N+](=O)[O-]	3.1	4.1	4651	5.1	13.0	3.8	-13.2
CCOc1ccccc1NC(=O)C(OC(=O)c1ccccc1O)c1ccccc1 (centres undefined)	11.1	6.5	2229	-9.0	-7.4	41.0	-6.5
CCC(C)c1ccc(S(=O)(=O)N2CCN(C(=O)c3ccc(Cl)c(S(=O)(=O)N4CCOCC4)c3)CC2)cc1 (centres undefined)	6.2	2.0	5753	nt	8.8	-2.1	nt
O=C(CCN1CCCCCC1)c1ccccc1	nt	nt	3679	nt	-7.1	16.4	-22.2
CCOP(=O)(NC12CC3CC(CC(C3)C1)C2)NC12CC3CC(CC(C3)C1)C2	-0.1	5.1	3946	1.5	2.5	-4.4	-19.8
O=C(NCC(c1ccco1)N1CCOCC1)c1ccc(Cl)cc1 (centres undefined)	5.7	2.9	nt	14.7	-0.2	0.2	-20.3
CC(C)[C@@H]1CC[C@@H](C)c2c(-c3ccccc3)n[nH]c21	-0.1	3.8	2457	2.4	-23.6	-6.9	-8.3
O=C(O)CSc1cc(C(=O)c2ccccc2O)cn2c(=O)c3c4c(sc3nc12)CCCC4	-5.1	-10.5	4760	19.2	8.3	3.8	-7.3
O=C1CC(/C=C/c2ccccn2)=Nc2ccccc2N1	5.6	6.3	4490	1.9	6.0	8.7	-15.6
CCCOC(=O)c1ccc(NC(=O)CCOc2ccccc2)cc1	-0.8	15.8	9883	1.8	2.0	-3.2	-6.4
Cc1cc(C)n2ncc(S(=O)(=O)c3ccccc3)c2n1	8.8	20.0	3858	-5.3	6.7	4.2	-8.7
Cc1ccccc1CN1CCc2c(OCC(=O)N3CCCc4ccccc43)cccc2C1=O	5.8	1.9	2616	-8.3	-0.2	-7.8	-23.2
COc1ccc(-n2c(N)c(C(=O)Nc3c(C)n(C)n(-c4ccccc4)c3=O)c3nc4ccccc4nc32)cc1	nt	nt	3571	-0.3	nt	nt	-30.1
CCOc1ncccc1C(=O)OC(C)C(=O)NC(=O)NC1CCCCC1 (centres undefined)	-5.5	0.2	4413	0.0	-4.2	-3.5	-6.7
O=C(Nc1ccccc1C(F)(F)F)N1CCC(n2c(=O)[nH]c3ccccc32)CC1	7.2	4.3	2880	6.2	-13.8	-6.8	4.6
CCN1C2=C(C(=O)CCC2)C(c2ccc(O)c(Br)c2)C2=C1CCCC2=O	0.2	4.4	4146	-0.2	4.9	10.4	-19.1
CCN1C(=O)/C(=C\N(C)C)SC1=NS(=O)(=O)c1ccccc1	-4.7	2.4	nt	nt	1.3	5.9	nt
C=CCNC(=S)N1CCC(C(=O)c2ccc(Cl)cc2)CC1	6.0	5.0	3929	-0.3	-1.5	1.7	-13.4
Cc1cccc(NC(=O)/C(=C\c2ccc([N+](=O)[O-])o2)NC(=O)c2ccc(Cl)cc2)c1	-9.9	-3.7	2507	nt	10.8	-22.7	-21.6
Cc1ccc(/C=N/NC(=O)c2cc3c(ccc4ccccc43)o2)o1	nt	nt	3950	1.0	nt	nt	-21.0
Cc1ccc(NC(=O)CCCC(=O)O)c(Br)c1	nt	nt	2422	nt	2.5	2.1	-4.1
Cc1cc(C)n2nc(CC(=O)NC3CCCCCC3)nc2n1	8.5	4.6	19846*	-9.6	3.0	4.6	16.9
C/C(=N/NC(=O)CC(=O)N/N=C(\C)c1ccc([N+](=O)[O-])cc1)c1ccc([N+](=O)[O-])cc1	nt	nt	4038	-0.9	nt	nt	-15.9
CN1CCN(CCCNC(=O)c2ccc(NC(=O)C3=CSCCO3)cc2)CC1	-1.3	4.3	5442	-4.3	1.2	3.2	-33.7
O=C(CN1CCN(C(=O)c2ccco2)CC1)Nc1ccc(F)cc1F	1.5	4.8	5918	10.4	-1.0	0.1	-20.7
COc1cccc(CNC(=O)c2ccccc2N)c1	nt	nt	2137	-6.4	4.9	-5.7	-4.5
CC(C)(C)OC(=O)NCCCCC(NC(=O)c1nc[nH]c1C(=O)NC(CCCCNC(=O)OC(C)(C)C)C(=O)OC(C)(C)C)C(=O)OC(C)(C)C (centres undefined)	1.9	-2.9	nt	nt	5.6	3.0	nt
CC(CNS(=O)(=O)c1ccc(Cl)cc1)n1cncn1 (centres undefined)	4.0	-4.3	3462	-6.1	3.3	9.4	-18.3
COc1cc([N+](=O)[O-])ccc1NC(=O)CCCOc1ccccc1	nt	nt	4450	-5.6	2.3	-1.2	3.7
O=C(COC(=O)/C=C/c1ccc(F)cc1)NC1CCCCCC1	11.8	8.9	3096	nt	5.9	10.4	-14.3
CC(=O)c1ccc(NC(=O)C2CCCN2S(=O)(=O)c2ccc(C)cc2)cc1 (centres undefined)	nt	nt	6208	-7.6	1.6	-6.2	-14.3
CC(C)CNC(=O)c1cccc(NC(=O)c2ccc(Cl)c([N+](=O)[O-])c2)c1	1.7	0.1	2484	0.3	3.6	-7.7	-6.1
O=C(Nc1nnc(SCc2ccc(F)cc2)s1)c1ccc2ncsc2c1	-1.5	-13.9	2564	-1.7	1.7	0.1	-36.7
FC(F)(F)c1ccc(N2CCN(Cc3ccc4c(c3)OCO4)CC2)nc1	8.4	13.8	1931	0.1	13.2	61.1	-13.2
Cc1ccc(NC(=O)Nc2cccc3ccccc23)cc1	-9.1	-9.2	nt	1.2	0.8	7.1	-23.9
Cc1cccc(-c2nnc(SCC(=O)N3CCOCC3)o2)c1	16.3	9.6	2971	0.2	2.6	7.2	-33.0
O=c1cc(O)c2ccc(O)cc2o1	nt	nt	6010	-0.4	0.2	5.5	-4.6
CCn1c(C)cc(C(=O)CSc2nnc(-c3ccco3)o2)c1C	4.6	-4.6	3154	nt	5.1	-15.4	-23.9
O=C1NC(=Nc2ccccc2)S/C1=C\c1cccn1-c1ccccc1	nt	nt	3502	21.2	nt	nt	-81.5
Cc1cc(C)c(S(=O)(=O)NCCOc2ccccc2)c(C)c1-n1cnnn1	4.5	-1.2	4875	-14.5	0.8	2.7	-20.7
O=C(COC(=O)C1CC(=O)N(CCc2ccccc2)C1)c1ccc[nH]1 (centres undefined)	13.1	2.0	nt	nt	8.2	3.8	-34.6
Cc1ccnc(NS(=O)(=O)c2ccc(NC(=O)CSc3nc(-c4ccccc4)cc(=O)[nH]3)cc2)n1	5.3	1.5	4812	10.8	3.3	9.2	-13.1
O=C(c1cc(-c2ccccc2Cl)on1)N1CCCC1	4.9	5.6	5906	4.4	1.1	0.7	-65.8
CC12CCC(C(=O)NNc3ccc([N+](=O)[O-])cc3)(CC1=O)C2(C)C (centres undefined)	7.7	4.1	2010	2.4	2.5	12.4	-3.9
Cc1cccc(NC(=O)c2nc[nH]c2C(=O)N[C@@H](C)C(=O)OCc2ccccc2)c1	nt	nt	3802	-1.9	nt	nt	-5.4
O=C(CSc1nnc(CNC(=O)c2ccccc2F)o1)c1ccccc1	nt	nt	3464	0.2	-0.5	-1.4	-21.2
CCN(CC(=O)Nc1ccccc1C(F)(F)F)C(=O)CCc1c(C)[nH]c(=O)c(C#N)c1C	-0.6	-3.3	4578	-3.3	-1.5	-2.9	5.9
COc1ccc(C(=O)NCc2ccccc2)cc1S(=O)(=O)N1CCCc2ccccc21	nt	nt	5494	17.3	-9.5	-7.7	-18.8
O=C(Nc1ccc2c(c1)OCO2)c1ccc(Br)c(S(=O)(=O)N2CCCC2)c1	-69.0	0.8	4533	-2.7	2.5	-1.2	-22.8
O=C(O)c1ccc(-n2cccc2)cc1O	-7.3	7.2	13366	8.5	6.6	-2.7	-24.0
Cc1cccc(-n2ccnc2CN2CCN(C(C)C)C(CCO)C2)c1 (centres undefined)	19.2	-1.7	6411	-9.8	0.8	0.8	-9.8
COc1ccc(CCNC(=O)C2CCN(S(=O)(=O)c3ccc(NC(C)=O)cc3)CC2)cc1OC	4.7	3.7	3954	3.8	3.6	7.7	-15.4
Cc1ccnc(NC(=O)C2CCN(S(=O)(=O)c3ccc(C)c(C)c3)CC2)c1	8.1	11.8	?	-5.4	0.7	7.5	-30.8

Another view of four compounds above.
canonical_smiles | Mtb hypoxia inh | Mtb hypoxia inh growth | Bead autofluor | BJeLR viability | Sa RN4220 lethal | ugtP null kill | PrP UTR inh
C=CCNC(=S)N1CCC(C(=O)c2ccc(Cl)cc2)CC1 | 6.0 | 5.0 | 3929 | -0.3 | -1.5 | 1.7 | -13.4
Cc1cccc(NC(=O)/C(=C\c2ccc([N+](=O)[O-])o2)NC(=O)c2ccc(Cl)cc2)c1 | -9.9 | -3.7 | 2507 | nt | 10.8 | -22.7 | -21.6
Cc1ccc(/C=N/NC(=O)c2cc3c(ccc4ccccc43)o2)o1 | nt | nt | 3950 | 1.0 | nt | nt | -21.0
Cc1ccc(NC(=O)CCCC(=O)O)c(Br)c1 | nt | nt | 2422 | nt | 2.5 | 2.1 | -4.1

Further compounds:
SMILES	Mtb hypoxia inh	Mtb hypoxia inh growth	Bead autofluor	BJeLR viability	Sa RN4220 lethal	ugtP null kill	PrP UTR inh
COc1ccc(C(=O)Nc2ccc(C)cc2C(=O)c2ccccc2)c(OC)c1	7.5	17.3	1996	2.1	-2.6	-11.4	-14.5
COc1ccc(OC)c(NS(=O)(=O)c2cc(OC)ccc2OC)c1	-9.9	-9.1	6900	-1.5	-0.8	-2.7	-12.0
COCCN=C1N[C@@H](c2ccc(Br)cc2)C(C(=O)OC)=C(C)N1Cc1ccccc1	nt	nt	2911	7.7	nt	nt	-13.3
CCN(CC)S(=O)(=O)c1ccc2nc(COC(=O)c3n[nH]c4ccccc34)[nH]c2c1	5.9	1.5	6486	-9.2	4.3	-0.8	-10.6
CN(C)S(=O)(=O)c1cccc(C(=O)N2CCN(Cc3ccccc3)CC2)c1	3.3	-1.0	3927	1.2	4.2	6.0	-8.3
O=C1/C(=C\c2cc3c(cc2Cl)OCO3)N2CCC1CC2	11.2	6.6	2002	8.0	6.4	2.6	-6.2
C/C(=N\NC(=O)Cn1nnc2ccccc21)c1ccco1	nt	nt	3380	-0.3	nt	nt	-4.4
COC(=O)c1ccc2c(=O)n(CCCCCC(=O)NCc3ccccc3)c(=O)[nH]c2c1	-5.7	-2.5	?	1.2	6.0	0.6	-29.5
COc1cccc(C(=O)N2CCCN(C)CC2)c1OC	5.1	-3.0	3084	3.9	1.5	2.1	-4.0
Cc1ccc2c(Cn3cc(C(F)(F)F)cc(Cl)c3=O)cc(=O)oc2c1	-10.0	-4.4	nt	-2.9	-0.9	5.2	nt
CCOc1ccsc1C(=O)NNC(=O)c1ccco1	-0.6	-6.3	4627	-8.0	0.3	-0.1	-0.3
COc1cc2cnc(CCCC#N)cc2cc1OC	8.3	15.1	3591	nt	3.5	1.7	3.9
COc1cc(C(=O)N/N=C/c2ccc(OC(=O)c3ccccc3Cl)c(OC)c2)ccc1O	nt	nt	5528	-0.3	nt	nt	-17.1
COC(=O)c1cc(Br)c(=O)n(Cc2ccc(OC)c(OC)c2)c1	22.1	9.4	3290	-4.3	-12.9	-5.7	-13.5
CCN1CCCC1CNC(=O)C(=O)NC(C)C (centres undefined)	-2.7	0.7	3135	-4.5	3.5	-4.7	-6.5
O=C(O)CCN1C(=O)c2ccc(Oc3ccc([N+](=O)[O-])cc3)cc2C1=O	4.2	-3.0	nt	4.2	4.3	17.0	-16.2
CCOC(=O)Cn1c(=O)c(-c2cc(Br)ccc2N)nc2ccccc21	4.5	0.2	3914	-0.9	10.2	5.0	-11.6

High-throughput results from PubChem BioAssay.
